Screens deposited in PubChem BioAssay by ICCB-Longwood Screening Facility, Harvard Medical School.
GIV-Gai inh: GIV-Galpha-i interaction inhibition; P08753; Galpha-i3/FITC-GIV peptide fluorescence polarization, 90 min; hits give low values; scaled: aluminum fluoride 0%, vehicle 100%; percent of control (FP), % (no concentration beside the values); actives 0.42% (n = 210,000); AID 1224905;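 active means replicate mean at 85% of control or lower, very high polarization wells dropped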;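 further: wells of about 15 µL received 100 nL stock; the first replicate is given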
Target sequence (P08753 whole entry, looked up): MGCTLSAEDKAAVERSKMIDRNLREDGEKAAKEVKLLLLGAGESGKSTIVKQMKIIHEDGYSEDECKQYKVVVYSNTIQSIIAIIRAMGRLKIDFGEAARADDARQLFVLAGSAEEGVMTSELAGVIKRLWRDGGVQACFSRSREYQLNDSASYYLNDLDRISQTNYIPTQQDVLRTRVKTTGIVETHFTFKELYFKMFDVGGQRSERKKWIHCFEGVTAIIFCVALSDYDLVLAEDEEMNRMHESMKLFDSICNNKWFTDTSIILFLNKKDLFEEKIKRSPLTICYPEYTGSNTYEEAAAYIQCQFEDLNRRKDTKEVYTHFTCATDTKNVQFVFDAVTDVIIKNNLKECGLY
HCMV UL50-53 inh: inhibitors of HCMV UL50-UL53 nuclear egress complex interaction. HTRF UL50-UL53 interaction, normalized percent inhibition. inhibition, % (concentration not given with the values). actives 0.15% (n = 190,000). AID 1918969;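 active means both replicates at 50% or more, plus weaker picks with an unusually low signal ratio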;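 further: stock transfer was 100 nL into about 20 µL; 0% = negative control wells and 100% = wells with untagged competitor protein; inactives centre near -12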
Sa growth inh: inhibitors of Staphylococcus aureus growth at 42 °C. S. aureus RN4220 growth, OD600, 20 h; hits give low values. relative growth, % (concentration not given with the values). actives 0.53% (n = 170,000);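 active means growth at 42 °C up to 50% and 20 or more points under that at 30 °C, or under 10% at both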;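 further: 300 nL library stock went into each well; scaled to the means of positive and negative controls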
Sa growth inh second temp: second read-out of Sa growth inh, no call of its own (marks repeat the call); relative growth, %; measured here: growth at 30 °C;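 optical density after 20 h as mean of two plates; 100% = untreated growth and lower means inhibition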
An asterisk follows results filed as active; . = no result given; & = joins results of further samples. The order is random; about 0.79% have a hit in one of these screens.

Preview (3 entries):
SMILES	GIV-Gai inh	HCMV UL50-53 inh	Sa growth inh	Sa growth inh second temp
Cc1nc(OCC(F)(F)F)c2c3c(sc2n1)CCCC3	100	-12	.	.
COc1ccc(NC(=O)CCNS(=O)(=O)c2ccc3c(c2)c(=O)n(C)c(=O)n3C)cc1	107	-8	102	91
CCNC(=O)Cn1cc(C#N)c2ccccc21	101	-3	112	91

This part in full, from the first entry:
SMILES	GIV-Gai inh	HCMV UL50-53 inh	Sa growth inh	Sa growth inh second temp
Cc1nc(OCC(F)(F)F)c2c3c(sc2n1)CCCC3	100	-12	.	.
COc1ccc(NC(=O)CCNS(=O)(=O)c2ccc3c(c2)c(=O)n(C)c(=O)n3C)cc1	107	-8	102	91
CCNC(=O)Cn1cc(C#N)c2ccccc21	101	-3	112	91
O=C(O)CNS(=O)(=O)c1ccc2ccccc2c1	97	-25	86	91
Cc1cccc(-c2nnc(SCC(=O)N3CCCCC3C)o2)c1 (stereo unspecified)	104	.	86	86
CSc1[nH]n2c(=O)cc(C)nc2c1S(=O)(=O)c1ccccc1	104	-29	91	86
COC(=O)c1c[nH]n2c(=O)cc(CS(=O)(=O)c3ccc(C)cc3C)nc12	98	-30	.	.
COCC(=O)NC(c1ccccc1)c1ccccc1	97	-5	113	97
O=C(CN1c2ccc(F)cc2-c2ccccc2S1(=O)=O)NCCC1=CCCCC1	110	-32	.	.
Cc1nc2c(C(=O)NCc3ccccc3)c[nH]n2c(=O)c1Cl	104	.	94	76
CSc1ccc(C2c3c(-c4ccccc4O)n[nH]c3C(=O)N2Cc2ccncc2)cc1 (stereo unspecified)	106	2	98	63
Nc1ccc(/C=C/c2ccccc2)cc1	.	-25	63	90
COc1ccc(NS(=O)(=O)c2ccc3oc4ccccc4c3c2)cc1OC	99	-8	88	91
CCN(CC)c1nc(-c2ccccc2)nc2ccccc12	99	8	54	55
N=C(N)SCCc1cnc[nH]1	106	-1&-10	.	.
O=S(=O)(c1ccc(Cl)cc1)N1CCc2ccccc21	.	-37	0.3*	0.0*
Cc1ccc2oc(C(=O)Nc3sc4c(c3C(=O)NCc3cccnc3)CCCC4)cc(=O)c2c1	102	-9	109	92
Cc1ccc(Cl)cc1-n1nnc(-c2nc(-c3ccc4c(c3)OCO4)no2)c1N	97	.	84	88
Cc1nc(C#N)c(Nc2ccccc2)o1	.	-27	103	86
CCOc1ccc(NS(=O)(=O)c2ccc3[nH]cc(C(=O)NCC4CCCO4)c(=O)c3c2)cc1 (stereo unspecified)	100	-17	101	90
CCN(CC)c1cc(Nc2ccc(Br)cc2)c([N+](=O)[O-])c2nonc12	104	-4	.	.
Cc1c(CCC(=O)NCCc2ccccc2)c(=O)oc2c(C)c(O)ccc12	99	-36	103	92
CC(=O)Nc1cccc(C(=O)NC(=NCc2ccncc2)Nc2cccc(C(C)C)c2)c1	104	4	.	.
NC(=O)c1c(SCc2ccccc2)sc(C(=O)c2ccccc2)c1N	98	-25	93	84
Cc1ccccc1CCN1C(=O)c2oc3ccccc3c2OCC1(C)C(=O)NC1CCCC1 (stereo unspecified)	110	-28	.	.
CCOc1ccc2c(c1)c(=O)c(C(=O)c1ccc3c(c1)OCO3)cn2Cc1cccc(F)c1	99	-9	108	82
CN1C(=O)C(CC(=O)Nc2ccc(F)cc2)N(NC(=O)c2cccc(F)c2)C1=S (stereo unspecified)	.	-3	103	92
NC(=O)CSc1nc2c(c(=O)n1C1CCCCC1)C1(CCCCC1)Cc1ccccc1-2	96	-26	.	.
COCCCNC(=O)CSc1nc(-c2ccc(C(C)C)cc2)no1	104	2	.	.
O=C(COC(=O)Cc1cccc(C(F)(F)F)c1)NC1CC1	.	-38	90	87
O=C1CSC(c2ccncc2)N1CC1CC1 (stereo unspecified)	105	-7	95	92
CC1(C)CN(c2cccc(N3CC(C)(C)C3=O)n2)C1=O	101	-19	.	.
CC(C)CCn1nnnc1CN1CCN(Cc2ccc3c(c2)OCO3)CC1	105	-1	119	110
O=C(NCCC1=CCCCC1)C1CCN(S(=O)(=O)N2CCCC2)CC1	107	.	92	83
Cc1ccc2c(c1)N(C(=O)N1CCCC(C(=O)NCCCc3ccccc3)C1)CC(C)O2 (stereo unspecified)	106	.	99	86
O=C1NC(=O)C(CC(=O)c2ccccc2)S1 (stereo unspecified)	95	-6	101	81
Cc1ccc(NC(=O)Cn2c(=O)nc(-c3ccccc3F)c3cc(Cl)ccc32)c(Br)c1	108	-18	96	92
C/C(=C\C(=O)C(F)(F)F)NC1CCCCC1	.	-27	76	90
NC(=O)C1CCCN1S(=O)(=O)c1ccc2ccccc2c1 (stereo unspecified)	102	-24	101	102
COCCCNC(=O)c1ccc2c(=O)n(Cc3ccc(OC)cc3)c(=O)[nH]c2c1	104	-9	96	90
Cn1nc(C(=O)OC2CCCCC2=O)c2ccccc2c1=O (stereo unspecified)	.	-38	95	97
O=C(O)CCS(=O)(=O)Nc1ccccc1	.	-1	90	90
CN(c1ccccc1)c1cc(N2CCCCCC2)c2nonc2c1[N+](=O)[O-]	105	-11	.	.
CN/N=C(\Cc1nc2ccccc2[nH]1)c1ccccc1	.	-47	96	78
Cc1cc2c(cc1S(=O)(=O)Nc1cccc(Cl)c1C)OCCN2C	100	.	120	104
O=C(OCC(=O)N1CCCCC1)c1ccccc1I	.	-16	118	92
N#Cc1ccccc1S(=O)(=O)N1CCN(C(=O)c2cc(C3CC3)nn2-c2ccccc2)CC1	.	-31	95	88
CCOC(=O)c1ccc(CNC(=O)CSc2nnc(-c3ccc(OC)cc3)o2)cc1	108	-7	124	94
Nc1ccc2c(c1)C/C(=C/c1ccco1)C2=O	.	-85	92	65
O=C(COc1ccc(Cl)cc1)N/N=C\c1cn(CC(=O)N2CCOCC2)c2ccccc12	101	-28	104	67
Next section
SMILES	GIV-Gai inh	HCMV UL50-53 inh	Sa growth inh	Sa growth inh second temp
Cc1ccc(OCC(=O)Nc2nonc2-c2ccc(Br)cc2)cc1C	104	-3	113	86
O=C(Cc1ccc(F)cc1)N1CCC(n2nc(-c3ccccc3)oc2=O)CC1	105	-24	.	.
O=C(COCc1cc(-c2ccc3c(c2)OCO3)on1)NCC1CCCO1 (stereo unspecified)	105	3	.	.
O=C(CC1NC(=O)NC1=O)NC1(C(=O)NC2CCCC2)CCCCC1 (stereo unspecified)	105	-22	96	91
CC(C)(C)NS(=O)(=O)c1cccc2c(N)cccc12	109	-56	88	72
O=C(CO/N=C/c1ccccc1OC(F)F)N1CCN(C(=O)c2ccco2)CC1	.	-23	96	85
C=CCSc1nnc2n1CCN2c1ccc(OC)cc1	104	-25	.	.
CC1CCN(C(=O)c2cc3ccccc3s2)CC1	102	.	119	90
CCNC(=O)[C@H]1O[C@@H](n2cnc3c(N)nc(NCCc4ccc(CCC(=O)O)cc4)nc32)C(O)[C@H]1O (stereo partly specified)	107	10	.	.
CCOC(=O)C1C2C=CC3(CN(c4ccc(Cl)c(F)c4)C(=O)C13)O2 (stereo unspecified)	99	-2	93	81
COc1ccc(-c2cc(C(=O)Nc3ccc4c(c3)OCO4)no2)cc1OC	100	-8	103	85
COc1ccc(C2=NN(C(=O)CCC(=O)O)C(c3cccc([N+](=O)[O-])c3)C2)cc1 (stereo unspecified)	100	-47	.	.
CCC(=O)Nc1cnc(OC)c(C(F)(F)F)c1	100	2	103	73
COCC(C)NC(=O)c1cnc2scc(C)n2c1=O (stereo unspecified)	104	2	.	.
CC(C)c1nc2ccc(C(=O)NCCCN3CCN(c4cccc(Cl)c4)CC3)cc2o1	98	.	107	81
O=C1OC2CC3CC2C1C3C(=O)N1CCc2ccccc21 (stereo unspecified)	105	-16	111	87
Cc1nc(CNCc2ccc(CN(C)C)cc2)cs1	.	0	98	89
CCN(c1cccc(C)c1)S(=O)(=O)c1ccc(OC)cc1	100	-16	107	92
COc1ccc2c(c1)c1c(c(=O)n(-c3cccc(C)c3)c(=O)n1CC(=O)NCc1ccc(C)cc1)n2C	106	.	117	88
COc1cccc(-c2cc(C(=O)Nc3sc4c(c3C#N)CCC(C(C)(C)C)C4)no2)c1 (stereo unspecified)	108	1	95	92
NS(=O)(=O)c1ccc(NC(=O)c2ccccc2C(=O)O)cc1	102	-35	92	87
Cc1ccc2c(c1)OC=CC(C(=O)Nc1ccc(F)cc1)=C2	103	-23	.	.
CC(C)(C)c1ccc(Cn2c(CO)cc3sccc32)cc1	103	-1	76	81
COc1ccc(OC)c(CCNC(=O)c2sc(-n3cccc3)nc2C)c1	109	-16	81	91
CCOC(=O)c1cc(-c2csc(Nc3ccc(C)cc3)n2)on1	107	-14	101	77
COc1cc(C(=O)Nc2cccc(-c3nc4cc(Cl)cc(Cl)c4o3)c2)cc(OC)c1OC	107	-16	.	.
CCOc1cc2c(cc1OCC)C1C(C(=O)N3CCCCC3)c3ccccc3C(=O)N1CC2 (stereo unspecified)	98	.	130	84
Cc1cc(C(=O)N2CCN(S(=O)(=O)c3ccccc3)CC2)no1	.	4	109	93
CCCN1C=C(C(=O)OC)C(c2cccc(Cl)c2)C(C(=O)OC)=C1	108	-16	109	91
CCOc1ccc(NC(=O)Cn2c(=O)n(Cc3ccco3)c(=O)c3oc4ccccc4c32)cc1	101	.	101	82
CCCCCNc1nc2c(S(=O)(=O)c3ccccc3)nnn2c2ccccc12	102	3	.	.
O=C(O)CNC(=O)c1nc2ncccn2n1	101	-1	92	84
Nc1cccc(CCc2ccncc2)c1	104	-48	103	100
CCOC(=O)c1c(NC(=O)C2Cc3ccc(C)cc3C(=O)O2)sc(C)c1C (stereo unspecified)	104	-9	.	.
Cn1c2ccc(Cl)cc2c2nc3ccccc3nc21	105	0	95	78
N#CC(C(=O)CSc1nc2ccccc2[nH]1)c1ccccc1 (stereo unspecified)	.	19	89	21
Cc1ccc(S(=O)(=O)N2CCN(Cc3ccccc3Cl)CC2)cc1	106	-21	106	85
CCOc1cccc(CNc2ccc(N3CCCC3)cc2)c1	111	-4	90	92
COc1ccccc1N1CCN(C(=O)c2ccc(S(=O)(=O)N3CCCCC3)cc2)CC1	105	-8	98	93
CN1CCN(c2ccc(CNC(=O)c3cccnc3Oc3ccc(Cl)cc3)cc2)CC1	95	-26	122	89
CCN1CSC(=S)N(Cc2ccccc2)C1	101	.	119	82
CC(Sc1nnc(C2CC2)n1C1CC1)C(=O)c1c[nH]c2ccccc12 (stereo unspecified)	.	-12	114	83
O=C(COC(=O)/C=C/c1ccc(Br)o1)Nc1cccc2nsnc12	.	-57	97	94
O=C(CSCc1cccc(Br)c1)N/N=C/c1ccco1	98	-18	110	104
COc1cccc2c(=O)c(NC(=O)N3CCC(C(N)=O)CC3)c[nH]c12	96	-20	.	.
COc1cc(OC)cc(C(=O)Nc2cc3c(cc2N2CCCCC2)n(C)c(=O)n3C)c1	105	-11	105	86
O=C(CSc1nnc2ccccn12)Nc1ccc(N2CCCCC2)cc1	.	-33	69	86
CCCCCn1c(=O)c2sccc2n2c(CCC(=O)NCCC3=CCCCC3)nnc12	100	-20	.	.
O=C(Cn1c(-c2ccc(F)cc2)nc2c(c1=O)CCN(Cc1ccccc1)C2)NCCC1=CCCCC1	104	-23	.	.
Cc1c(C(=O)OC2CCOC2=O)oc2c1ccc1ccccc12 (stereo unspecified)	.	-10	103	93
Next part:
SMILES	GIV-Gai inh	HCMV UL50-53 inh	Sa growth inh	Sa growth inh second temp
COC(=O)c1sc(NC(=O)/C=C/c2ccc(OC)c(OC)c2)c(C(=O)OC)c1C	105	-14	115	85
Cc1cccc(N2CCN(c3nc4ccc(C(=O)c5ccccc5)cc4n4cnnc34)CC2C)c1 (stereo unspecified)	107	.	94	92
COC(=O)CNC(=O)c1ccccc1	.	-15	108	86
Cc1nc(Nc2nc(-c3ccccc3)cc(=O)[nH]2)nc2c(C)cccc12	102	-8	.	.
COc1ccc(Cl)cc1NC(=O)N1CC(=O)Nc2sc3c(c2C1c1ccccc1)CCCC3 (stereo unspecified)	101	-15	119	91
O=S(=O)(NCC(O)c1ccccc1)c1ccccc1 (stereo unspecified)	100	-31	85	83
CCn1c(C)c(C2=CCN(S(=O)(=O)c3ccccc3)CC2)c2ccccc21	106&108	-30	103	106
CCc1ccc2oc(-c3cc(NC(=O)c4cccs4)ccc3Cl)nc2c1	108	-2	102	87
COc1ccccc1Nc1nn(-c2ccccc2)c2c1C(=O)CCC2	101	-43	106	98
CCOC(=O)C1=C(C)N=c2s/c(=C\c3ccc(Br)o3)c(=O)n2C1c1ccc(OC)cc1OC (stereo unspecified)	107	-26	.	.
Cc1c2c(=O)n(-c3nc4ccccc4s3)nc-2cc(O)n1Cc1ccccc1	.	-24	62	28

5 compounds picked at random from the list so far, as already listed:
SMILES	GIV-Gai inh	HCMV UL50-53 inh	Sa growth inh	Sa growth inh second temp
Cc1cccc(N2CCN(c3nc4ccc(C(=O)c5ccccc5)cc4n4cnnc34)CC2C)c1 (stereo unspecified)	107	.	94	92
COc1ccc(Cl)cc1NC(=O)N1CC(=O)Nc2sc3c(c2C1c1ccccc1)CCCC3 (stereo unspecified)	101	-15	119	91
Cc1nc(Nc2nc(-c3ccccc3)cc(=O)[nH]2)nc2c(C)cccc12	102	-8	.	.
CCn1c(C)c(C2=CCN(S(=O)(=O)c3ccccc3)CC2)c2ccccc21	106&108	-30	103	106
COc1ccccc1Nc1nn(-c2ccccc2)c2c1C(=O)CCC2	101	-43	106	98
